Compound activity deposited in PubChem BioAssay by National Center for Advancing Translational Sciences (NCATS).
D2 PAM = human D2 receptor positive allosteric modulation; potentiation, % (no concentration beside the values); AID 624464; P14416; DiscoveRx D2 beta-arrestin cells, luminescence, 90 min; 100% = 57 uM dopamine signal; 360,000 tested, 0.23% active; active = potentiation of 50% or more; inconclusive = 30% to 50%; inactive = 30% or less;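 further: compound concentration not given in the record; tested on top of an EC20 dose of dopamine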
Target sequence (P14416 whole entry, looked up): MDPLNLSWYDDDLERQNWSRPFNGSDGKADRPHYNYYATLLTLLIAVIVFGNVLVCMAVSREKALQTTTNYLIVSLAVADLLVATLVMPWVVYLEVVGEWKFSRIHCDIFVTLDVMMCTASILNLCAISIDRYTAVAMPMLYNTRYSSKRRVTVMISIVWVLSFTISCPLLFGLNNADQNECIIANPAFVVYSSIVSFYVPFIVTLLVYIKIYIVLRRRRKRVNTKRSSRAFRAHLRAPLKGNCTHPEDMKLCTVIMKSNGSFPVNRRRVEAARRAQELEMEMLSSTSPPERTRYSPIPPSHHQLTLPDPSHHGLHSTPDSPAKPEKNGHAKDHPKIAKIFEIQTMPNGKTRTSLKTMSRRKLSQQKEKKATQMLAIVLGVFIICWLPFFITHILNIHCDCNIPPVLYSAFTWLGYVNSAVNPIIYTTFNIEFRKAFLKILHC
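D2 cells co-treated with compound plus 50 nM dopamine (EC20) for 90 min at 37 deg C to detect potentiation. Beta-arrestin recruitment was read as enzyme-fragment luminescence after 1 h at ambient temperature. Full response was set by 57 uM dopamine.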
gsp antagonist = antagonizes gsp, the McCune-Albright syndrome mutation | gsp-mutant cells, cAMP HTRF, 30 min; control for the full effect not named in the record | AID 624288 | 340,000 tested, 0.4% active | Potency, µM (titrated, usually from 76.9 µM), for the others: at the top dose activity change, negative = inhibition, usual class: inhibitors; active = falling curve of any shape with a large fitted effect; inconclusive = falling curve, mostly with a smaller effect; inactive = flat or rising curve; cell line not stated here;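 further: intracellular cAMP measured with PDE inhibitor Ro 20-1724 present during compound exposure; potency means the concentration at half of the fitted maximal effect; on the % scale 0 is the no-effect control and ±100 the full control effect; nearly all actives have a fitted effect of over 65% in size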
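Measurement of cellular cAMP by homogeneous time-resolved fluorescence following a 30 min compound exposure at 37C. The PDE inhibitor […] was present throughout; the assay buffer was DPBS with 0.05% BSA and 0.005% Tween 20.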
Menin MLL FP FL = displaces fluorescein MLL peptide from human menin. Fluorescence polarization, fluorescein-MLL peptide displacement from menin. FP activity change, % at 61.4 µM. 290,000 tested, under 10 active; inconclusive = falling polarisation curve, or a change in total fluorescence; inactive = total fluorescence flat and polarisation flat or rising; no compound was filed as active; the % refers to the polarisation; negative = inhibition;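 further: % of control where 0% means no effect; inhibitors lower the polarisation; unlabelled MLL peptide was the positive control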
TRPV1 potentiator = enhances activation of the human vanilloid receptor TRPV1; 320,000 tested, 0.02% active; potentiation, % at 8.33 µM; TRPV1-expressing cells, Fluo-8 calcium influx, capsaicin EC20 potentiation; host cell line not named in the record; control for the full effect not named in the record; AID 540277; Q8NER1; active means potentiation above 80%; inconclusive means 30% to 80%; inactive means below 30%; further: 0% is about no effect
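Fluo-8 calcium influx in TRPV1-expressing cells, kinetic read (ex 480/em 520 nm). Compound added and read 3 min for agonist activity, followed by capsaicin at EC20 final and 2 min further read for enhancement.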
gsp ag = activates gsp, the McCune-Albright syndrome mutation; 340,000 tested, 0.13% active; gsp mutant cells, cAMP HTRF, 30 min; control for the full effect not named in the record; Potency, µM (series often up to 76.9 µM), inactives show at the highest dose activation (cAMP increase), usual class: activators; AID 624287; active = well fitted activation curve with a large enough effect; inconclusive = small, poorly fitted or top-dose-only effect, or another doubt; inactive = no such curve, though single readings can be large or run the other way; cell line not stated here;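 further: phosphodiesterase inhibitor Ro 20-1724 added with compounds to block cAMP breakdown; potency means the concentration at half of the fitted maximal effect; nearly all actives have a fitted effect of over 60% in size; about a fifth of the inactives were tested at one dose only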
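Cells in DMEM/10% FBS with G418 were pretreated with compounds in DMSO plus […] (300 uM stock) for 30 min at 37C. cAMP was measured by HTRF (cAMP-d2 plus anti-cAMP antibody-K) after 30 min at room temperature.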
ClpP mod = qHTS Assay for Activators of ClpP; 340,000 tested, 1.9% active; purified B. subtilis ClpP, FRET peptide cleavage, 20 min; ATP-dependent Clp protease proteolytic subunit (Bacillus subtilis (strain 168)), P80244; Potency, µM (titrated, usually from 57.5 µM), for inactives: top-dose activity change, negative = active; active = well fitted falling curve with a large enough effect; inconclusive = small, poorly fitted or top-dose-only effect; inactive = no such curve, though single readings can be large or run the other way; further: potency means the concentration at half of the fitted maximal effect; the source files actives as falling curves though it sought activators and does not explain the sign; nearly all actives have a fitted effect of over 65% in size; many hits overshoot -100%
Target sequence (P80244 whole entry, looked up): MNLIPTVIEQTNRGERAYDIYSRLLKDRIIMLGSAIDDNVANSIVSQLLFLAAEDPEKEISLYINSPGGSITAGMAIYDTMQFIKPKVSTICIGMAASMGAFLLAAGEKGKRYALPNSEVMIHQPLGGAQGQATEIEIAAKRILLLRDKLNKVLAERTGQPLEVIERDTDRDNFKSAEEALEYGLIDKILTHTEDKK
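Purified B. subtilis ClpP, 10 microg/mL final in Tris/HCl pH8 with KCl, BSA, glycerol and Tween-20, cleaved an Abz/nitrotyrosine-quenched decapeptide. Fluorescence (ex 320, em 430) was read at 0 and 20 min at room temperature. Delta was normalized to 5.8 microM ADEP and DMSO/no-enzyme controls.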
Sfp PPTase inh = Sfp phosphopantetheinyl transferase inhibition. Q9F4F7. Biochemical Sfp PPTase activity, qHTS. Potency, µM, inactives show max response, negative = inhibition, usual class: inhibitors. 310,000 tested, 3.5% active. AID 1490; active means well fitted inhibition curve with a large enough effect; inconclusive means small, poorly fitted or top-dose-only effect, or another doubt; inactive means no such curve, though single readings can be large or run the other way;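 further: the enzyme is Sfp with the accession as filed and its product quenches rhodamine fluorescence; potency means the concentration at half of the fitted maximal effect; 0% = enzyme reaction without inhibitor and -100% = no enzyme wells; top concentration of the series not given in the record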
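Fluorescence-quenching assay: 15 nM Sfp-PPTase preincubated 15 min at room temperature with compound, then 5 uM rhodamine-CoA and 12.5 uM BHQ-2-labelled YbbR peptide added. Fluorescence (ex 525/em 598 nm) read at start and after 30 min; difference gives rate.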
Active calls of the source: *; ? = inconclusive; . = no result given; & = joins results of further samples; [ ] = remark or other dose.

smiles,D2 PAM,gsp antagonist,Menin MLL FP FL,TRPV1 potentiator,gsp ag,ClpP mod,Sfp PPTase inh
COc1ccc(S(=O)(=O)N2CCOCC2)cc1NC(=O)CSc1nnc(C2CC2)n1C1CC1,3.1,7.2%,.,14.4,22.6%,1.8%,.
COc1ccccc1C(=O)NCCC(=O)NCC(C)(C)N1CCOCC1,-8.5,9.1%,.,5.5,0.8%[15.4 µM],-1.0%,10.9%
COc1cc(/C=C/C(=O)O)cc(S(=O)(=O)Nc2cc(C(F)(F)F)ccc2N2CCOCC2)c1OC,6.4,-5.6%,.,.,5.6%[15.4 µM],4.4%,.
COc1ccc(C(CC(=O)Nc2ccc(F)cc2)c2ccccc2)cc1 (stereo unspecified),-4.6,-19.8%,2.9,-17.5,-2.7%,1.3%,13.0%
CC(C)(CSc1ccccn1)NS(=O)(=O)c1ccc(Cl)cc1,-5.6,-6.2%,3.3,-30.0,14.5%,0.9%,-10.7%
CC(C)C(=O)Nc1ccc(-c2nc3ccccc3c(=O)o2)cc1,-4.5,?,-0.9,8.3,-2.0%[15.4 µM],-0.6%,-1.8%
O=C(NN=C1CCCC1)c1sc2ccccc2c1Cl,0.7,11.9%,0.5,1.2,6.2%,.,10.0%
Cc1csc(NC(=O)CSC2=NCCS2)n1,-9.5,-1.2%,.,10.6,-3.5%,-0.8%,7.1%
COc1cccc2cc(C(=O)NCc3ccccn3)c(=O)oc12,8.1,6.3%,-2.2,0.2,1.0%,-1.8%,-1.7%
CCCn1c(CC)nc([N+](=O)[O-])c1Sc1ccc(F)cc1,-11.0,-6.4%,-0.8,29.2,-23.9%,-2.0%,13.9%
Cc1cc(C)cc(NC(=O)C(=O)NCc2ccccn2)c1,-8.9,7.0%,0.8,-11.1,8.2%,-15.5%,17.4%
Cc1ccc(NCc2nnc(SCC(=O)N(Cc3ccccc3)C(C)(C)C)o2)c(C)c1,-5.5,-22.5%,4.3,0.4,2.8%,0.4%,1.3%
NC(=O)C1CCN(Cc2nc(-c3cccs3)no2)CC1,0.4,19.0%,7.3,-5.4,4.2%[15.4 µM],-2.8%,19.0%
COC(=O)[C@@]1(C)[C@H]2C(=O)N(Cc3ccccc3)C(=O)[C@H]2[C@H]2CN=C(SCC3CC3)N21,-5.0,9.2%,.,.,.,-2.0%,.
COc1ccc(CN2C(=O)C(C)N(C(=O)c3c(F)cccc3F)c3ccccc32)cc1 (stereo unspecified),-6.2,?,-2.1,-3.2,-3.3%,0.8%,-8.8%
Cc1cccc(NS(=O)(=O)c2cc(C(=O)N3CCc4ccccc4C3)ccc2Cl)c1C,-1.1,-26.5%,0.6,24.4,-15.2%,1.6%,7.6%
Cc1nnc(SCc2ccccc2CSc2nnc(C)s2)s1,-8.9,0.4%,0.5,-9.8,-20.1%[15.4 µM],.,16.1%
COc1ccccc1C1/C(=C(/O)c2ccc(C)cc2)C(=O)C(=O)N1Cc1ccco1 (stereo unspecified),-6.1,-7.6%,-1.5,7.5,7.5%[15.4 µM],.,?
CCO[C@@H]1OC(C(=O)NCc2nc3ccccc3[nH]2)=C[C@H](c2coc3ccccc3c2=O)[C@H]1CCCO,0.6,3.7%,.,.,.,0.9%,.
CN1CCN(C(=O)CN(Cc2ccccc2)S(C)(=O)=O)CC1,28.4,6.4%,2.3,4.4,-24.1%,-1.9%,7.9%
CN1C(=O)c2cccc(NC(=O)C3CCCCC3)c2C1=O,-8.5,7.6%,-0.3,8.3,-18.5%,5.0%,-5.3%
CCCC(c1nnnn1CS(=O)(=O)c1ccc(C)cc1)N1CCC(C(N)=O)CC1 (stereo unspecified),-0.7,0.6%,4.2,5.4,6.8%,.,19.6%
COc1ccc2c(c1)c1ncn(CCN3CCCC3)c(=O)c1n2C,2.3,-5.4%,1.1,15.5,1.9%,31.6µM*,4.3%
COc1ccccc1NC(=O)C(C/C=C(\C)Cl)C(C)=O (stereo unspecified),1.7,-1.7%,-9.4,11.6,-36.0%[inhibitor],0.2%,7.3%
NC(=O)CCS(=O)(=O)CCN1CCN(S(=O)(=O)c2ccc3c(c2)CCC3)CC1,-6.2,-10.6%,.,4.7,14.1%,-3.3%,.
CCN(CC)CCN1C(=O)C(O)=C(C(=O)c2cc3cccc(OC)c3o2)C1c1cccs1 (stereo unspecified),-0.2,2.3%,2.2,-0.4,?,.,23.9%
CCOc1ccc(N(C)c2ccc(/C=C3/SC(=S)NC3=O)cc2)cc1,-2.1,?,?,-7.9,-0.9%,.,-12.6%
O=C(CN(Cc1cccs1)C(=O)CSc1nnc(COc2ccccc2)o1)NC1CCCC1,-12.4,-15.4%,2.7,0.3,-9.0%,0.7%,-7.6%
COc1ccccc1CNC(=O)/C=C/C(=O)O,-1.2,2.4%,0.5,19.3,-1.9%[15.4 µM],-1.4%,5.9%
CCCCCCCC(=O)N1c2ccccc2NC(=O)C1CC(=O)Nc1ccc(C(=O)O)cc1 (stereo unspecified),3.9,4.7%,2.3,1.1,-4.2%[15.4 µM],.,7.9%
CN(CC(=O)Nc1ccc(F)cc1)C(=O)COC(=O)Cc1c(F)cccc1Cl,-15.9,3.3%,.,-6.8,-34.4%[15.4 µM],.,.
O=C(C[C@H]1C[C@H](C(=O)N2CCOCC2)[C@@]2(CCC3CCCC3)c3[nH]c4cc(-c5ccco5)ccc4c3CCN2C1=O)NCC12CC3CC(CC(C3)C1)C2,-9.0,-1.8%,.,.,.,4.0%,.
COCCCNC(=O)CNC(=O)c1nn(-c2ccc(OC)cc2OC)c(=O)c2ccccc12,-12.7,-4.2%,-1.5,3.8,2.6%,-0.2%,12.8%
CCOC(=O)C1CCN(C(=S)Nc2cccc(C)c2)CC1,6.2,0.4%,0.7,-1.3,-14.4%,0.7%,3.1%
O=C(Cn1cnc2ccccc21)c1ccc(Cl)cc1,-2.4,3.0%,-0.5,-1.8,12.0%[15.4 µM],-1.2%,3.4%
C/C(=N\NC(=O)c1cnccn1)c1ccc([N+](=O)[O-])cc1,0.7,26.0%,-0.3,4.1,40.4%[15.4 µM],.,2.6%
CC1(C)CC(NC(=O)c2ccccc2)CC(C)(C)N1,-7.4,12.8%,-2.5,-10.6,-20.9%[15.4 µM],-0.7%,10.2%
COc1ccc(/C=N/NC(=O)C2C(=O)NCC2c2ccccc2)c(OC)c1 (stereo unspecified),-0.3,10.3%,-2.3,2.8,9.1%,.,7.2%
Cc1onc(-c2ccccc2Cl)c1C(=O)N1CCN(C/C=C/c2ccccc2)CC1,-11.4,-14.3%,0.1,-10.6,-35.8%[inhibitor],-2.6%,-5.8%
COc1ccc(-c2[nH]c(-c3cc(OC)c4c(c3)OCO4)nc2-c2ccccc2)cc1,-17.7,-23.9%,1.8,5.9,-19.3%,?,25.9%
Cc1cc(C)cc(OCC(=O)Nc2cnn(CCCC(=O)O)c2)c1,-7.4,9.5%,.,0.7,41.1%,1.7%,11.1%
COC(=O)N1CCN(c2ccc(C)c(C)c2)CC1,.,.,0.1,-6.3,.,.,25.4%
Cc1onc(-c2ccccc2)c1-c1nnc(CN2CCN(S(=O)(=O)c3ccccc3F)CC2)o1,2.3,?,.,-12.5,0.1%,?,.
CCC(NS(=O)(=O)c1ccc(C)cc1)C(=O)N1CCOCCOCCOCC1 (stereo unspecified),-22.3,.,-8.9,4.6,-1.9%[15.4 µM],.,17.3%
CCC(C)Nc1ncnc2c1cnn2Cc1ccc(Cl)cc1 (stereo unspecified),24.0,2.1%,-3.6,?,-21.1%,4.5%,0.1%
O=c1cc(C23CC4CC(CC(C4)C2)C3)[nH][nH]1,7.0,6.9%,6.0,-26.2,0.7%,-1.0%,-13.6%
O=S(=O)(Nc1ccc(Cc2ccncc2)cc1)c1ccc(Cl)cc1,-9.8,?,0.0,8.6,27.3%[15.4 µM],.,9.3%
COc1cc(O)c(C(CCN2CCCCC2)c2cc(OC)c(OC)c(OC)c2)c(OC)c1 (stereo unspecified),-16.8,-6.2%,0.3&1.7,?,.,-4.4%,16.4%&-13.1%
Cc1ccc(C)c(CN2CCCN(C(=O)Cn3ncc4c3-c3ccccc3OC4)C2)c1,-2.6,?,0.7,-13.2,12.2%,-1.7%,-14.1%
CCNC(=O)COC(=O)c1cc(-c2ccco2)nc2ccccc12,1.7,-7.7%,-5.8,-9.6,-22.7%,3.7%,15.8µM*

(further entries)
smiles,D2 PAM,gsp antagonist,Menin MLL FP FL,TRPV1 potentiator,gsp ag,ClpP mod,Sfp PPTase inh
Cn1nnnc1SCC(=O)Nc1ccccc1N1CCOCC1,1.9,8.4%,0.5,-7.7,1.8%,0.3%,19.7%
Cc1nc2ccc(NC(=O)c3ccc(Cl)c(NC(=O)c4cccs4)c3)cc2s1,-16.5,-14.7%,1.9,25.5,4.3%,-5.8%,0.5%
COCCNc1oc(-c2ccccc2Cl)nc1C#N,-7.5,-0.3%,3.7,-17.6,22.3%,5.2%,-15.2%
CN(C)c1nccc(Nc2ccccc2)c1C#N,-6.0,-5.9%,0.4,-15.3,-41.6%[inhibitor],0.6%,12.8%
O=c1oc2ccccc2c(Nc2cccc3cccnc23)c1[N+](=O)[O-],-7.7,6.2%,0.0,10.0,32.8%[15.4 µM],.,-23.8%
